UCH37 inh: blocks the human deubiquitinase UCH37; purified proteasome/UCH37, Ub-AMC cleavage fluorescence; inhibition, % (concentration not given with the values); 0.33% of 330,000 active; AID 588478;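 active = mean of two replicates above 20%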;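 also: 0% = compound-free wells with enzyme and 100% = wells lacking proteasome; stock transfer was 100 nL into about 20 µL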
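Material: human UCH37 enzyme supplied as purified proteasome complex. Measure: % inhibition of Ub-AMC cleavage fluorescence. Medium: pH 7.4 Tris-HCl (50 mM) with ovalbumin, ATP-MgCl2, DTT. Times: 30 min preincubation with enzyme, 25 min cleavage at room temperature. Detection: AMC fluorescence intensity at 355/460 nm.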
ALR H2O2 inh: inhibitors of human sulfhydryl oxidase ALR; 3.8% of 290,000 active; P55789; purified ALR, DTT oxidation, H2O2 HRP-luminol luminescence; inhibition, % (concentration not given with the values); AID 485317;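 active = mean and each replicate at 75% or more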;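 also: stock transfer was 7.5 nL into about 7.5 µL; 0% = neutral wells and 100% = wells with inactivated enzyme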
Target sequence (P55789 whole entry, looked up): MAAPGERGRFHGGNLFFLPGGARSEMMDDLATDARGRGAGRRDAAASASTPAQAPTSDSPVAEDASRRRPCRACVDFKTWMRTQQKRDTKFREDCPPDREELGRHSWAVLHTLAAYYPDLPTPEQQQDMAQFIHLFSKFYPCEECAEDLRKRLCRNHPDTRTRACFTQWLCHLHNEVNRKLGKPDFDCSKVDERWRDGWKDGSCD
Beta2AR agonist: human beta-2 adrenergic receptor agonism by FAP | P07550 | Am2.2-beta2AR cells, FAP receptor internalization, flow cytometry; reference of the scale not given here | response, % (test concentration not listed) | 0.43% of 340,000 active;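 active = response above a set limit, near 3 SD of response in nonfluorescent compounds, cut at about 42% in these data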;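 also: stock transfer was 100 nL into about 11 µL; a reference agonist was the positive control; negative values mostly stem from fluorescent compounds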
HNF4A DNA FP: change in binding of human HNF4 alpha to DNA; P41235; HNF4a-FITC DNA binding, fluorescence polarization, 1 h; activity change, % at 10 µM; 0.3% of 360,000 active; AID 1224865; in the data active = activity change above about 30%, passing the limit was not always enough;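 also: controls were the assay level and a saturating level of protein; the project sought stronger binding though the title names inhibitors; some compounds called inactive have numbers as strong as hits; positive values seem to mean higher polarization but the record does not say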
Target sequence (P41235 whole entry, looked up): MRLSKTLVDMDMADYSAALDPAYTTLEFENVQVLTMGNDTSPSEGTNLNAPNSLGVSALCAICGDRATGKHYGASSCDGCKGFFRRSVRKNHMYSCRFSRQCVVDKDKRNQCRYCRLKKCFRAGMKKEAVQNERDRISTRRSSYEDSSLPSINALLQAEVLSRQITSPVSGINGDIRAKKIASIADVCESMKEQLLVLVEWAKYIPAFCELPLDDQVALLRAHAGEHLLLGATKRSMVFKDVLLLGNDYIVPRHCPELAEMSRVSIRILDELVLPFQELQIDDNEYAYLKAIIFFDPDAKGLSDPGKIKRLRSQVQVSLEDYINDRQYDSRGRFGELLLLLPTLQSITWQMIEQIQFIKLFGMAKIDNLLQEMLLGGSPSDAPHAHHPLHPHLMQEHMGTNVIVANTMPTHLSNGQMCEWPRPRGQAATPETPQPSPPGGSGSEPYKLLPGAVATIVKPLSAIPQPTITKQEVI
FGF22 binding: FGF22 (human) thermal shift binding. recombinant FGF22 thermal shift, SYPRO orange fluorescence; percent of sucrose octasulfate shift, DMSO zero. calls only at 9.99 µM. 1.5% of 340,000 active. AID 651658;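 active = melting point raised past a set limit in the mean and every replicate; three in four hits are not shown here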
Target sequence (Q9HCT0 whole entry, looked up): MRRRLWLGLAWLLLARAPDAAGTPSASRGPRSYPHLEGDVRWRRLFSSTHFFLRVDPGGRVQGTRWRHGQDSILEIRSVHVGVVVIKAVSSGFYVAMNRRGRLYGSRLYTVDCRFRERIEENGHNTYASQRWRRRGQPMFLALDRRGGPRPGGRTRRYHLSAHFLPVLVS
rRNA inh HTS: inhibits bacterial ribosomal RNA function over humanized ribosomes. E. coli WT GFP vs humanized-ribosome RFP mutants, fluorescence, 24 h; stronger effect = lower value; DMSO median 0, no signal -100. GFP signal change (wild-type ribosome), % (no concentration beside the values). 1.6% of 350,000 active;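 active = significant combined selectivity score with lowered wild-type GFP, culture density cut under 30%, mutant RFP and density less affected; inactive = any of these conditions unmet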; also: one replicate is shown; some compounds called inactive have numbers as strong as hits
E coli growth: blocks Escherichia coli growth. 0.21% of 330,000 active. OD600, 23 h; stronger effect = lower value. OD600 absorbance (test concentration not listed);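 active = OD600 absorbance below the run mean of sample wells minus 3.6 SD, in any replicate, cut at about 0.56 in these data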;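 also: stock transfer was 300 nL into about 60 µL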
rRNA inh HTS OD600: further read-out of rRNA inh HTS, marked with its call; OD600 change, %; measured here: OD600 growth;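 optical density of the mix in the first replicate; 0 = DMSO median and -100 = no signal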
rRNA inh HTS RFP: second read-out of rRNA inh HTS, no call of its own (marks repeat the call); RFP signal change, %; measured here: RFP humanized mutant strains;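 first replicate; 0 = DMSO median and -100 = no signal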
Numbers without * were called inactive; i = inactive; . = no result given. Some of the compounds tested (hit frequency here may not be typical).

UCH37 inh	ALR H2O2 inh	Beta2AR agonist	HNF4A DNA FP	FGF22 binding	rRNA inh HTS	rRNA inh HTS OD600	rRNA inh HTS RFP	E coli growth	compound
-0.3	-22.0	10.2	3.6	i	.	.	.	0.667	O=C(Nc1cccc(S(=O)(=O)N2CCCCC2)c1)c1c2c(nc3ccccc13)CCN(Cc1ccccc1)C2
5.2	-5.5	4.2	-0.7	i	-1.0	-2.8	-0.3	0.696	Cc1cc(S(=O)(=O)Nc2ccc3c(c2)n(C)c(=O)n3C)ccc1F
3.4	-4.2	14.4	1.2	.	.	.	.	0.729	Cc1cc(=O)[nH]c(N2CCN(C(c3ccccc3)c3ccccc3)CC2)n1
4.7	98.5*	2.8	-1.2	i	-5.2	0.2	0.5	0.689	COc1ccc(-c2nc(CS(=O)CC(=O)NCc3ccco3)c(C)o2)cc1OC (stereo unspecified)
-0.7	-8.1	-0.8	-0.3	.	.	.	.	0.731	Cc1cc(C(F)(F)F)n2ncc(-c3ccccc3)c2n1
11.6	-10.3	-3.5	-1.3	.	.	.	.	0.685	CC(=O)C1=C(O)C(=O)N(CCc2c[nH]c3ccccc23)C1c1ccco1 (stereo unspecified)
-1.1	-7.0	1.4	-0.8	i	17.5	11.3	-5.3	0.665	COC(=O)COc1ccc(S(=O)(=O)NCc2cccnc2)cc1C
-92.2	-0.3	.	-0.4	i	-36.0*	-21.9*	-7.3*	0.651	CCOc1ccc2[nH]c3c(N4CCN(C(=O)c5ccco5)CC4)ncnc3c2c1
1.9	-2.4	4.6	2.0	i	14.7	9.0	0.2	0.649	N/C(=N\c1nc2ccccc2o1)NC(=O)c1cccc(Br)c1
1.2	-19.7	0.1	13.8	.	.	.	.	0.691	O=C(Nc1ccc2nc3ccccc3nc2c1)c1ccc(Br)cc1
3.6	-6.7	-6.4	0.8	i	7.5	3.9	-1.7	0.648	Cc1ccc2c(=O)[nH]c(Cc3ccccc3C(=O)O)nc2c1
2.2	.	4.0	1.2	.	-9.4	-2.0	-2.5	0.736	CCn1cc(C(=O)N2CCCCC2)c(=O)c2cc(S(=O)(=O)N3CCC(C)CC3)ccc21
0.4	-9.2	-5.7	-1.1	i	7.6	14.0	1.2	0.643	CC(Sc1nc2c(c(=O)[nH]1)CCCC2)C(=O)Nc1ccc(S(N)(=O)=O)cc1 (stereo unspecified)
1.1	-2.2	1.1	0.9	i	.	.	.	0.783	C[C@@H](C(=O)NC1CCCC1)N1C(=O)N2CCc3c([nH]c4ccccc34)[C@@]2(C)C1=O
.	.	17.7	1.4	i	8.5	6.5	-2.6	.	Brc1ccccc1/C=N/Nc1nc2ccccc2o1
5.4	12.4	-2.6	2.8	i	-5.2	-8.4	6.4	0.7	COCCN(Cc1ccccc1)C(=O)c1cccc(S(=O)(=O)N2CCN(c3ccc(F)cc3)CC2)c1
.	.	.	-2.8	i	8.1	13.4	-0.8	.	CCN(CC)Cc1c(C)[nH]c2ccc(NC(C)=O)cc2c1=O
.	19.6	6.9	1.1	i	-3.4	-3.6	-0.4	.	CSc1ccc(/C=N/N2CCN(C)CC2)cc1
4.1	3.1	1.6	4.6	i	7.7	6.7	14.0	0.689	O=C(NCCc1ccc(Cl)cc1)c1cccs1
-0.6	-2.3	-1.3	-0.1	i	2.2	7.0	-1.9	0.635	Cc1cc(C(=O)NCC(c2ccco2)N(C)C)ccc1[N+](=O)[O-] (stereo unspecified)
0.3	-14.2	9.0	3.1	.	.	.	.	0.724	CCOC(=O)C1CCN(C(=O)Nc2ccc(OC)c(OC)c2)CC1
-1.4	-12.0	-12.2	-4.1	i	9.5	13.5	3.0	0.662	O=[N+]([O-])c1ccccc1OCC(O)CN1CCN(CC(O)COc2ccccc2[N+](=O)[O-])CC1 (stereo unspecified)
5.8	-44.3	-1.0	4.2	i	-19.5	-3.8	9.9	0.519	NCCCn1c(C(=O)c2ccc(Cl)cc2)c2ccc([N+](=O)[O-])cc2[n+]1[O-]
-8.3	-5.5	-2.2	1.7	i	-29.6	-33.1	-4.7	0.726	O=C1COc2ccc(C(=O)COC(=O)Cc3ccc(Cl)cc3)cc2N1
1.4	-33.5	2.3	1.9	i	18.0	12.2	-1.3	0.717	COCCCNCC(O)COc1ccccc1F (stereo unspecified)
.	.	.	2.2	i	3.3	10.5	-4.2	.	CCc1nc2ccc(C(=O)NCCCn3ccnc3)cn2c1N(C)C(=O)c1cccc(OC)c1
.	-10.0	-20.5	-0.1	.	.	.	.	.	Cc1ccc(/C=N/n2c(=O)c(C(C)(C)C)nn3cnnc23)cc1
1.1	-11.8	-16.1	3.2	.	.	.	.	0.698	C/C(=C\c1ccco1)C1C(C#N)=C(N)OC2=C1C(=O)CC(C)(C)C2 (stereo unspecified)
-0.7	36.4	2.0	3.0	i	.	.	.	0.699	O=C(CSc1nc2ccc(Nc3nc(N4CCOCC4)nc(N4CCOCC4)n3)cc2s1)Nc1ccccc1F
2.4	4.3	3.2	0.0	.	5.1	4.8	0.0	0.705	CCSc1nnc(NC(=O)[C@@H](NC(=O)c2ccccc2F)C(C)C)s1
3.1	.	16.6	-0.3	i	17.4	7.2	0.0	0.703	O=C(Oc1ccc2c(c1)O/C(=C\c1ccncc1)C2=O)c1cccs1
2.1	2.1	-1.2	5.5	i	-8.4	-9.8	-5.5	.	CCOC(=O)C1=CC[C@@H](c2ccco2)N(S(=O)(=O)c2ccc(C)cc2)[C@H]1C(=O)OCC
2.8	-4.6	-3.9	2.3	i	-6.0	-12.4	4.2	0.699	CCOC(=O)c1ccc(NC(=S)N2CCCC2c2ccc(OC)c(OC)c2)cc1 (stereo unspecified)
.	50.4	-3.0	-4.6	i	-42.5	-41.1	3.7	.	Cc1cccc(-n2cnc(C(=O)NNC(=S)Nc3ccc(Cl)cc3)c2)n1
1.6	.	-1.7	-3.8	.	-4.6	-9.5	-3.1	0.661	C=CCNC(=S)Nc1ccc(Cl)c(S(=O)(=O)N2CCOCC2)c1
.	.	.	0.2	i	10.3	11.4	2.8	.	CCCCC(=O)N(C)c1c(C)nc2ccc(C(=O)N3CCN(C(=O)c4ccco4)CC3)cn12
3.9	4.0	4.4	-3.9	i	-0.4	0.4	2.2	0.68	Cc1cc(C)c(C(=O)OCC(=O)Nc2cccc(S(=O)(=O)N3CCCCC3)c2)c(C)c1
-60.6	-6.4	1.6	3.5	i	8.8	9.9	2.4	0.645	O=C1NCCN(Cc2c(F)cccc2Cl)C1CC(=O)N1CCCO1 (stereo unspecified)
3.9	-5.1	-2.3	-0.7	.	2.4	2.2	-3.6	0.705	COc1ccc(OCCCC(=O)OC(C)C(=O)Nc2ccc(S(N)(=O)=O)cc2)cc1 (stereo unspecified)
-5.4	.	2.5	0.6	.	.	.	.	0.663	COc1ccccc1-n1c(-c2ccc(NS(C)(=O)=O)cc2)n[nH]c1=S
0.3	0.5	1.0	-1.1	.	.	.	.	0.763	Cc1cc(S(=O)(=O)NCC(C)C)ccc1OCC(=O)N1CCOCC1
3.2	-6.9	-2.9	5.5	i	-18.6	-13.9	-0.7	0.653	Cc1ccc(S(=O)(=O)Nc2cc(-c3ccccc3)nn2C)cc1
4.8	-2.6	-8.0	-2.7	i	4.9	13.9	0.7	0.674	C=CCNC(=O)C1CCN(S(=O)(=O)c2cccs2)CC1
-0.5	-1.6	8.8	-5.2	i	0.7	-1.8	-2.4	0.709	COc1ccc(NC(=O)C23CC4CC(C2)CC(c2ccc(C)cc2)(C4)C3)cc1
5.5	3.1	-14.9	5.2	.	.	.	.	0.645	O=C(COc1ncnc2sccc12)N1CCc2ccccc2C1
1.7	-3.0	-9.0	-0.7	i	2.4	-2.1	-1.1	0.625	CC(C)c1ccc(S(=O)(=O)N2CCN(C(C)C(=O)N3CCCC3)CC2)cc1 (stereo unspecified)
2.0	-26.7	4.4	4.0	i	6.8	12.2	-6.4	0.707	CC(C)(C)c1ccc(-c2cc(N)n[nH]2)cc1
3.4	0.2	-4.1	1.9	i	4.4	10.9	-2.3	0.683	COc1ccc(N2C(=NC(=O)C3CCCCC3)SC3CS(=O)(=O)CC32)cc1 (stereo unspecified)

Some of the entries above, reformatted.
molecule | UCH37 inh | ALR H2O2 inh | Beta2AR agonist | HNF4A DNA FP | FGF22 binding | rRNA inh HTS | rRNA inh HTS OD600 | rRNA inh HTS RFP | E coli growth
COc1ccc(NC(=O)C23CC4CC(C2)CC(c2ccc(C)cc2)(C4)C3)cc1 | -0.5 | -1.6 | 8.8 | -5.2 | i | 0.7 | -1.8 | -2.4 | 0.709
Cc1cccc(-n2cnc(C(=O)NNC(=S)Nc3ccc(Cl)cc3)c2)n1 | . | 50.4 | -3.0 | -4.6 | i | -42.5 | -41.1 | 3.7 | .
CCOC(=O)C1=CC[C@@H](c2ccco2)N(S(=O)(=O)c2ccc(C)cc2)[C@H]1C(=O)OCC | 2.1 | 2.1 | -1.2 | 5.5 | i | -8.4 | -9.8 | -5.5 | .
Cc1ccc(S(=O)(=O)Nc2cc(-c3ccccc3)nn2C)cc1 | 3.2 | -6.9 | -2.9 | 5.5 | i | -18.6 | -13.9 | -0.7 | 0.653
COc1ccc(N2C(=NC(=O)C3CCCCC3)SC3CS(=O)(=O)CC32)cc1 (stereo unspecified) | 3.4 | 0.2 | -4.1 | 1.9 | i | 4.4 | 10.9 | -2.3 | 0.683
Cc1cc(C)c(C(=O)OCC(=O)Nc2cccc(S(=O)(=O)N3CCCCC3)c2)c(C)c1 | 3.9 | 4.0 | 4.4 | -3.9 | i | -0.4 | 0.4 | 2.2 | 0.68

Source: PubChem BioAssay
